Calb FLC: affects C. albicans growth with fluconazole. C. albicans CaCi-2 (fluconazole-resistant clinical isolate) + fluconazole, Alamar Blue growth, 48 h. growth inhibition, % (no concentration beside the values). 300,000 compounds, 0.57% hits;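 active means most replicates above 75%; inconclusive means exactly half above 75%; inactive means most below 75%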;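 further: all wells also contain fluconazole at 8 µg/ml as a sub-toxic cotreatment; 0% = median of DMSO wells and 100% = median of geldanamycin control wells; wells of about 8 µL received 7.5 nL stock; the first replicate is given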
Vif TR-FRET: inhibitors of Vif binding to APOBEC3G peptide, primary screen, biochemical, TR-FRET, GST-Vif 1-94, biotin-A3G peptide, dose response retest (AID 1117319). TR-FRET GST-Vif / biotin-A3G peptide binding; higher % means a stronger effect; test concentration not given here; strong numbers were not always called active. inhibition, %, or IC50 in µM where a hit was titrated. 260,000 compounds, 0.57% hits;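 active means above the screen mean plus three standard deviations and confirmed in dose response; inconclusive means results disagree or hit not tested in dose response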;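 further: Vif residues 1-94 fused to GST binding biotinylated APOBEC3G peptide 110-148; 0% = full assay without inhibitor and 100% = GST in place of GST-Vif; retest series ran down from 100 µM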
LANA-H2B inh: blocks KSHV LANA binding to histone H2A/H2B; inhibition, % (concentration not given with the values); 320,000 compounds, 0.6% hits; Q9QR71; cell-free LANA-H2A/H2B peptide, fluorescence polarization; AID 2629; in the data active means inhibition mostly above about 10%, no sharp cut-off; inactive means mostly below about 6.7%;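 further: stock transfer was 7.5 nL into about 10 µL; 0% = median of vehicle wells and 100% = median of positive control wells; one replicate is shown; the record names a cut of 25% in any replicate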
T cruzi inh: T. cruzi replication inhibition; inhibition, % (concentration not given with the values); T. cruzi beta-gal in NIH3T3, luminescence, 90 h; 300,000 compounds, 1.4% hits;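 active means mean inhibition across valid replicates above about 55%, limit read from the data; inconclusive means mean below that limit but half or more replicates reach it; inactive means mean below it, under half of replicates reach it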;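 further: signal also drops with host cell toxicity which is not excluded here; 0% = plate median of DMSO wells and 100% = zero luminescence signal; higher percent means less beta-gal luminescence so fewer parasites; stock transfer was 50 nL into about 50 µL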
RanGTP-Impb inh: disruptors of Ran-importin-beta complex formation – biochemical, FRET, CFP-Ran, YFP-importin-beta, homogeneous, primary screen; cell-free CFP-Ran/YFP-importin-beta FRET ratio; inhibition, % (test concentration not listed); 300,000 compounds, 1.1% hits;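 active means most replicates above 15%; inconclusive means exactly half above 15%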;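 further: 0% = DMSO wells and 100% = Ran loaded with GDP instead of GTP; wells of about 40 µL received 100 nL stock; the first replicate is given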
AF4-AF9 inh: MLL-AF4/AF9 protein interaction inhibition | P42568 | AlphaScreen, biotin-AF4 peptide binding to FLAG-AF9 | inhibition, % at 10 µM | 350,000 compounds, 0.47% hits | AID 651704;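 active means every replicate reaching a set inhibition limit, whatever the replicate mean, cut at about 25% in these data; inconclusive means mean inhibition reaches that limit but some replicates miss it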;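 further: 0% = plate neutral control median and 100% = total signal loss; the record names both 10 and 1 µM as test concentration; the first replicate is given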
Target sequence (P42568 whole entry, looked up): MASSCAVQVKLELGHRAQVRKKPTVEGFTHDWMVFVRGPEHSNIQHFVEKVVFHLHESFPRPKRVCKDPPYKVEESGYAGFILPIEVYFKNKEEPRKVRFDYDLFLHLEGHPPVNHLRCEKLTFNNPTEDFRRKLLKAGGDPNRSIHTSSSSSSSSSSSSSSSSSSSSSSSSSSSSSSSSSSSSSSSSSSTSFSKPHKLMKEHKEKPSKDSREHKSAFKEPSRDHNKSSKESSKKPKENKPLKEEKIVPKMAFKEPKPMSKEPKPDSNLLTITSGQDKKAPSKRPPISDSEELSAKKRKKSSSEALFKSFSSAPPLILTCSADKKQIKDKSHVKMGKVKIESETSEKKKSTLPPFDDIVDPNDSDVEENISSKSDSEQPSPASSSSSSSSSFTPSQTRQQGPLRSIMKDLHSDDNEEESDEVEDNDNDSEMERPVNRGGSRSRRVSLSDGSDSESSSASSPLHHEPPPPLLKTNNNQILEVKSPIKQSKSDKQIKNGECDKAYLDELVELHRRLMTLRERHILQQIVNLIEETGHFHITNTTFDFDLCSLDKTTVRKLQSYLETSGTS
Beta cell apopt: beta cell apoptosis inhibition; INS-1E cytokine-induced death, ATP luminescence, 48 h; percent of positive-control rescue, neutral wells zero; protection from apoptosis, % (no concentration beside the values); 300,000 compounds, 0.8% hits; AID 435005;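 active means all replicates at 75% or more, or half of them and the mean; inconclusive means half reach 75% but not the mean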;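 further: 0% = cytokine-treated negative control wells and 100% = positive control rescue; higher means more ATP so stronger rescue from cytokine killing; wells of about 40 µL received 100 nL stock; the first replicate is given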
A1 inh: inhibitors of the anti-apoptotic protein A1, read as caspase activation; 330,000 compounds, 0.066% hits; MEF A1-2A-BIM cells, Caspase-Glo 3/7 luminescence, 3 h; percent of clofoctol response, vehicle zero; caspase activation, % (no concentration beside the values); AID 2462;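 active means over half of replicate activation scores above 10%, or exactly half above 10 with the replicate mean above 10; inconclusive means replicate mean below 10 yet half the replicates above 10; inactive means over half of replicates below 10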;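 further: wells of about 30 µL received 50 nL stock; many hits fall short of the cut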
* = called active by the depositor; ? = inconclusive; . = no result given; & = joins results of further samples.

no. | mol | Calb FLC | Vif TR-FRET | LANA-H2B inh | T cruzi inh | RanGTP-Impb inh | AF4-AF9 inh | Beta cell apopt | A1 inh
1 | COc1ccc(C(=O)NC(=S)N2C[C@H]3C[C@H](C2)c2cccc(=O)n2C3)cc1 | -1.1 | . | 2.2 | -8.5 | 1.9 | -18.2 | -2.3 | 1.2
2 | COC(=O)C1=C(c2cccc(OC)c2OC)C[C@@H]2CC[C@H]1N2C(=O)NC1CC1 | -1.9 | . | 1.2 | -7.2 | 0.8 | 1.0 | -6.6 | 1.3
3 | CCCc1cc(=O)oc2cc(OCC(=O)N3C[C@H]4C[C@@H](C3)c3cccc(=O)n3C4)ccc12 | 1.3 | . | -3.5 | 10.3 | -5.0 | -1.6 | . | -0.1
4 | CCN1CCN(Cc2cc(C(C)(C)C)c(O)c(C(C)(C)C)c2)CC1 | -13.3 | 28.7% | -2.6 | -13.9 | -1.3 | . | -3.3 | -1.3
5 | CNC(=O)c1cccn(Cc2cc(C(F)(F)F)cc(C(F)(F)F)c2)c1=O | -18.9 | 3.7% | 3.4 | -4.8 | 5.8 | -0.2 | -1.9 | 0.1
6 | COc1cc(C=C2C(=O)NC(=O)NC2=O)ccc1OS(=O)(=O)c1ccccc1[N+](=O)[O-] | 5.4 | 11.2% | 1.6 | 1.7 | 3.4 | 3.1 | 1.8 | 0.3
7 | CCc1ccc(C2=NN(CCC(=O)N3CCC4(CC3)OCCO4)C(=O)CC2)cc1 | 0.0 | . | 3.0 | -12.2 | -1.5 | -9.6 | -1.1 | 0.3
8 | CCCCn1c(NC(=O)c2ccco2)c(C(=O)OCC)c2nc3ccccc3nc21 | 28.3 | 3.6%&6.8% | -4.3 | 36.9 | 71.1* | . | -17.5 | -1.0
9 | CCN(CC)c1ccc(N=Cc2c(O)n(Cc3ccccc3)c(=O)[nH]c2=O)cc1 | 1.4&-1.3 | -2.1%&-5.1% | 6.0&6.9 | -1.5&7.0 | -10.8 | . | 14.9&1.9 | 0.5&0.2
10 | CCOc1cc(CNCCc2ccccc2F)ccc1OC | . | -7.6% | 4.6 | 32.4 | -1.5 | 3.4 | -3.2 | -0.1
11 | COc1ccc(C(C)=O)cc1CC(C(=O)c1ccc(C)c(C)c1)N(C)C (centres undefined) | -15.5 | -2.5% | -4.5 | 0.3 | 4.8 | . | -4.5 | 0.5
12 | COC(=O)C1=C(c2cccc(OCc3ccccc3)c2)C[C@@H]2CC[C@H]1N2C(=O)NCCCOC(C)C | . | . | 1.0 | . | . | -9.3 | 3.1 | -1.9
13 | Cc1cc(C(=O)Nc2ccc3c(c2)OCCO3)nn1C(C)(C)C | 11.5 | -2.9% | 8.0 | 3.3 | -2.2 | -1.6 | 11.9 | -0.3
14 | COc1cc(C(=O)OC2C[C@H]3CC[C@@H](C2)N3C)ccc1O (some centres undefined) | -2.9 | -2.8% | 1.2 | -7.1 | -0.2 | -1.6 | -14.8 | 0.3
15 | CCC(CO)Nc1ccc([N+](=O)[O-])c2cccnc12 (centres undefined) | -9.0 | 11.6% | 0.9 | 24.9 | -4.6 | . | -6.2 | 0.1
16 | O=C(C(=O)N1CCOCC1)c1cn(Cc2ccccc2Cl)c2ccccc12 | -9.0 | -2.5% | -0.4 | 4.6 | -1.3 | -12.1 | -3.5 | 0.0
17 | CC(=NCCC1=CCCCC1)c1c(O)n(-c2ccccc2)c(=O)[nH]c1=O | 4.9 | 11.8% | 4.4 | -9.6 | -1.0 | -3.7 | 5.8 | 0.7
18 | CCOP(=O)(OCC)C(O)c1ccc(OC)c(OC)c1 (centres undefined) | ? | 3.8% | 2.1 | 40.6 | -1.5 | . | -3.4 | 1.4
19 | CC(=O)CC(=O)C1C(=O)N(C)C(=O)N(C)C1=O | 8.3 | 7.2% | 0.5 | -13.9 | 3.3 | 1.6 | -2.4 | 2.0
20 | O=C(CCCc1ccccc1)NCCc1cnc[nH]1 | 2.8 | -0.2% | 1.5 | 49.3 | 5.4 | 1.3 | -2.0 | 0.0
21 | c1ccc(CC(NCc2ccco2)c2ccccc2)cc1 (centres undefined) | -13.8 | . | -1.7 | -4.6 | -2.3 | -3.2 | -5.0 | -0.1
22 | Cc1ccc(N2C(=O)NC(=O)/C(=C/c3ccc(-c4ccc(C(=O)O)c(Cl)c4)o3)C2=O)cc1 | -15.9 | 2.7% | 3.8 | -4.9 | 6.5 | -0.9 | 0.0 | -0.6
23 | CCOP(=S)(OCC)N1CCOCCOCCN(P(=S)(OCC)OCC)CCOCCOCC1 | -23.3 | 6.5% | -13.9 | 18.5 | 6.7 | -5.2 | -1.0 | -0.1
24 | O=c1[nH]c(O)c(N=Nc2ccc(S(=O)(=O)N3CCOCC3)cc2)c(=O)[nH]1 | 6.4 | . | 1.1 | 2.3 | . | -0.1 | -2.7 | 1.3
25 | CC(=O)c1cccc(OCC(O)CN2CC=C(c3ccccc3)CC2)c1 (centres undefined) | -10.1 | 5.4% | -8.0 | 16.4 | 3.6 | . | 2.5 | 0.7
26 | COC(=O)C1=C(c2ccccc2)C[C@@H]2CC[C@H]1N2C(=O)N1CCC(O)CC1 | 0.7 | . | 4.2 | -20.4 | -1.6 | -1.6 | -10.5 | -0.2
27 | CC(C)=CCSc1nnc([C@@H](N)Cc2c[nH]c3ccccc23)o1 | 34.7 | 0.0% | 0.8 | 3.1 | 2.0 | . | -0.5 | 0.3
28 | CC(C)OP(=O)(OC(C)C)C(O)c1ccc(Br)cc1 (centres undefined) | 6.9 | -6.3% | 2.4 | 0.6 | 2.0 | . | -6.9 | 0.2
29 | O=c1cccc2n1CC1CC2CN(S(=O)(=O)c2ccccc2)C1 (centres undefined) | 0.1 | 1.5% | -0.5 | -13.0 | -1.7 | 2.4 | 5.3 | 0.0
30 | Cc1nc2ccccc2c(=O)n1-c1ccc(F)cc1F | -4.9 | 1.0% | -3.5 | -7.6 | 4.1 | -0.6 | -3.5 | 0.1
31 | C[C@H]1CCC[C@H](O)CCCCCc2cc(O)cc(O)c2C(=O)O1 | . | -2.2% | -22.9&1.5 | -1.8 | -4.7 | -1.6&0.9 | 2.0 | 0.2
32 | CC/C(=N\N1CCCCCC1)c1c(O)n(-c2ccccc2C)c(=O)[nH]c1=O | -0.4 | . | 5.8 | 1.1 | ? | . | 5.8 | 0.4
33 | CCN1CCC(O)(c2ccccc2)C(C(=O)c2ccccc2)C1 (centres undefined) | -20.9 | -1.7% | 7.2 | 0.3 | -2.7 | . | -14.1 | 0.4
34 | CCCCn1c(O)c(/C=N/N2CCCCC2c2cccnc2)c(=O)[nH]c1=S (centres undefined) | 31.1 | -6.5% | -0.3 | -15.7 | 4.5 | 1.0 | -2.8 | 0.8
35 | O=C1NC(=O)N(Cc2ccco2)C(=O)/C1=C/c1cccn1CCOc1ccccc1Cl | -4.1 | . | 0.6 | -11.2 | -1.5 | 0.5 | 4.5 | -1.0
36 | Cc1c(C=C2C(=O)NC(=O)NC2=O)c(=O)n(-c2ccccc2)n1C | -3.3 | 1.4% | -2.7 | -6.8 | -2.3 | -0.5 | -3.8 | 0.7
37 | O=[N+]([O-])c1ccc(N2CCOCC2)c2cccnc12 | 9.3 | -1.1% | 2.1 | -3.9 | -0.4 | 0.1 | -4.5 | -0.3
38 | O=C(N/N=C/c1c(O)n(CCc2ccc(F)cc2)c(=O)[nH]c1=O)c1ccncc1 | -7.0 | . | -1.2 | 1.2 | -2.0 | 6.2 | 2.0 | -0.6
39 | COc1ccc(NP(=O)(Oc2cccc(C)c2)Oc2cccc(C)c2)cc1OC | -0.6 | -1.9% | 2.4 | 17.3 | 1.0 | -1.1 | -0.3 | 1.3
40 | CN1CCCC(C(=O)c2ccc(Cl)cc2)C1 (centres undefined) | -35.8 | . | -1.2 | -0.7 | 3.2 | -0.7 | 1.1 | 0.9
41 | CC12CC[C@H]3[C@@H](CCC4(O)C[C@H](O)CCC34/C=N/NC(=O)c3ccc(O)cc3)C1(O)CCC2C1=CC(=O)OC1 (some centres undefined) | 2.1 | -6.8% | -2.0 | -6.8 | 1.3 | 0.1 | -0.9 | -0.4
42 | Cc1cccc(-n2c(O)c(/C=C/C=Nc3ccccc3)c(=O)[nH]c2=O)c1 | 3.9 | . | -56.7 | -12.9 | 34.2* | . | 2.4 | 0.3
43 | Cn1cc(Br)c(C(=O)Nc2ccc3c(C(F)(F)F)cc(=O)oc3c2)n1 | -5.9 | -3.4% | -2.3 | . | . | -1.2 | -1.1 | -1.9
44 | CCOc1cc(CN2CCN(C(=O)Cc3ccccc3)CC2)ccc1OC | -1.8 | -7.5% | 3.9 | -9.8 | ? | 0.1 | . | 0.0
45 | CCC[C@H](N[C@@H](CCC)[C@H](O)c1ccccc1)[C@H](O)c1ccccc1 | 9.6 | . | -0.1 | 6.7 | 2.6 | 0.5 | . | 0.6
46 | CN1CCC2(CC1)NC(=O)C1=C(CN(C)CC1)N2 | 0.9 | 1.2% | -4.6 | 0.4 | 2.5 | . | -3.1 | -0.5
47 | CCN1C(=O)C(=Cc2cc(C)n(C3CC3)c2C)C(=O)N(CC)C1=S | -3.9 | . | -1.3 | -22.2 | -4.1 | . | -5.4 | -0.1
48 | COC(=O)C1=C(c2ccc(OCc3ccccc3)cc2)C[C@@H]2CC[C@H]1N2C(=O)NCc1ccc([N+](=O)[O-])cc1 | . | . | 4.3 | . | . | 0.0 | 21.0 | 0.2
49 | O=C(Nc1cccc(OC(=O)N2CCCCC2)c1)N1CCOCC1 | -15.3 | -1.1% | 8.2 | 11.6 | 2.1 | 1.1 | -2.6 | 0.3
50 | Fc1ccc2c(c1)nnn2C1CCN(Cc2nnnn2CCc2ccccc2)CC1 | 9.2 | 0.2% | 0.2 | 2.1 | -4.7 | . | 7.3 | -0.1
51 | CCCCNS(=O)(=O)c1ccc(OCC(=O)N2CCN(Cc3ccc4c(c3)OCO4)CC2)cc1 | -15.3 | . | -0.2 | 3.3 | 0.5 | -9.2 | 12.3 | -0.9
52 | COC(=O)C1=C(c2ccc(S(C)(=O)=O)cc2)C[C@@H]2CC[C@H]1N2C(=O)NCCCOC(C)C | -9.0 | . | -1.2 | -7.9 | 2.0 | -3.1 | -3.6 | -0.9
53 | COc1ccc2c(c1OC)C(=O)OC2c1c(O)n(C2CCCCC2)c(=O)[nH]c1=O (centres undefined) | . | 12.6% | -4.6 | -13.9 | 1.4 | . | -2.3 | 1.2
54 | O=C1C2C3CCC(O3)C2C(=O)N1c1cccc(F)c1 (centres undefined) | 9.8 | . | 1.7 | -8.1 | 2.1 | -2.8 | 5.3 | -0.2
55 | O=[As](O)(O)c1ccc(N=Nc2ccc(O)cc2)cc1 | 6.6 | ? | 4.8 | 3.0 | -2.3 | 1.3 | 0.7 | -1.1
56 | CCn1nc(/C=C/c2ccccc2)nc2c(=O)n(C)c(=O)nc1-2 | 100.9* | 10.1% | . | 60.2* | -2.1 | -8.7 | . | .
57 | CN(C)c1nc(OCCNC(=O)COc2ccc(Cl)cc2Cl)nc(N2CCCCC2)n1 | 14.3 | 4.8%&-1.9% | 3.5 | 33.8 | -3.0 | -135.1 | -4.7 | 0.1

Source: PubChem

Not all compounds are listed; the hit share may differ from the screen's.
